Screening data: PubChem, National Center for Advancing Translational Sciences (NCATS)
Sfp inh = qHTS Assay for Inhibitors of Bacillus subtilis Sfp phosphopantetheinyl transferase (PPTase) | 4'-phosphopantetheinyl transferase ffp (Bacillus subtilis), Q9F4F7 | Biochemical Sfp PPTase activity, qHTS | Potency, µM, without a hit: max response, negative = inhibition, hits mostly inhibitors | actives 3.5% (n = 310,000) | AID 1490, 2009; active = well fitted inhibition curve with a large enough effect; inconclusive = small, poorly fitted or top-dose-only effect, or another doubt; inactive = no such curve, though single readings can be large or run the other way;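 also: the enzyme is Sfp with the accession as filed and its product quenches rhodamine fluorescence; potency is read from the fitted curve at half-maximal effect; 0% = enzyme reaction without inhibitor and -100% = no enzyme wells; top concentration of the series not given in the record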
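With Hepes-Na pH 7.6 buffer containing 10 mM MgCl2, Sfp (15 nM) modified BHQ-2-YbbR (12.5 uM) using rhodamine-CoA (5 uM). Two reads 30 minutes apart at 525/598 nm yielded each well's rate.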
ClpP mod = qHTS Assay for Activators of ClpP | ATP-dependent Clp protease proteolytic subunit (Bacillus subtilis (strain 168)), P80244 | purified B. subtilis ClpP, FRET peptide cleavage, 20 min | Potency, µM (highest dose often 57.5 µM), inactives show at the top dose activity change, negative = active | actives 1.9% (n = 340,000); active = well fitted falling curve with a large enough effect; inconclusive = small, poorly fitted or top-dose-only effect; inactive = no such curve, though single readings can be large or run the other way; also: potency is read from the fitted curve at half-maximal effect; the source files actives as falling curves though it sought activators and does not explain the sign; nearly all actives have a fitted effect of over 65% in size; many hits overshoot -100%
Target sequence (P80244 whole entry, looked up): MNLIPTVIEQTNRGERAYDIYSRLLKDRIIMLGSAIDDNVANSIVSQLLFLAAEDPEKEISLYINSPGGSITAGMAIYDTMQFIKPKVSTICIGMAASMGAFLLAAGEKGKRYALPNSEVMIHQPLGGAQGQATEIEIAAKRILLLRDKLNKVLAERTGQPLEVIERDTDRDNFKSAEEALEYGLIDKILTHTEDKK
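Purified B. subtilis ClpP, 10 microg/mL final in Tris/HCl pH8 with KCl, BSA, glycerol and Tween-20, cleaved an Abz/nitrotyrosine-quenched decapeptide. Fluorescence (ex 320, em 430) was read at 0 and 20 min at room temperature. Delta was normalized to 5.8 microM ADEP and DMSO/no-enzyme controls.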
gsp ag = qHTS for Agonist of gsp, the Etiologic Mutation Responsible for Fibrous Dysplasia/McCune-Albright Syndrome: qHTS; gsp mutant cells, cAMP HTRF, 30 min; control for the full effect not named in the record; Potency, µM (titrated, usually from 76.9 µM), for inactives: at the top dose activation (cAMP increase), actives largely listed as activators; actives 0.13% (n = 340,000); AID 624287, 2012; active = well fitted activation curve with a large enough effect; inconclusive = small, poorly fitted or top-dose-only effect, or another doubt; inactive = no such curve, though single readings can be large or run the other way; cell line not stated here;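 also: phosphodiesterase inhibitor Ro 20-1724 added with compounds to block cAMP breakdown; potency is read from the fitted curve at half-maximal effect; nearly all actives have a fitted effect of over 60% in size; about a fifth of the inactives were tested at one dose only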
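Cells stably selected in G418 were plated at 2000/well, grown 16-24 hr, then given compounds in DMSO with the PDE inhibitor […] (300 uM solution added) for 30 min at 37C; cAMP was read by HTRF.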
TRPV1 PAM = HTS Assay for Compounds that Act as Potentiators of the Vanilloid Receptor 1; TRPV1-expressing cells, Fluo-8 calcium influx, capsaicin EC20 potentiation; host cell line not named in the record; control for the full effect not named in the record; potentiation, % at 8.33 µM; actives 0.02% (n = 320,000); AID 540277, 2011; active means potentiation above 80%; inconclusive means 30% to 80%; inactive means below 30%; also: 0% is about no effect
Target sequence (Q8NER1 whole entry, looked up): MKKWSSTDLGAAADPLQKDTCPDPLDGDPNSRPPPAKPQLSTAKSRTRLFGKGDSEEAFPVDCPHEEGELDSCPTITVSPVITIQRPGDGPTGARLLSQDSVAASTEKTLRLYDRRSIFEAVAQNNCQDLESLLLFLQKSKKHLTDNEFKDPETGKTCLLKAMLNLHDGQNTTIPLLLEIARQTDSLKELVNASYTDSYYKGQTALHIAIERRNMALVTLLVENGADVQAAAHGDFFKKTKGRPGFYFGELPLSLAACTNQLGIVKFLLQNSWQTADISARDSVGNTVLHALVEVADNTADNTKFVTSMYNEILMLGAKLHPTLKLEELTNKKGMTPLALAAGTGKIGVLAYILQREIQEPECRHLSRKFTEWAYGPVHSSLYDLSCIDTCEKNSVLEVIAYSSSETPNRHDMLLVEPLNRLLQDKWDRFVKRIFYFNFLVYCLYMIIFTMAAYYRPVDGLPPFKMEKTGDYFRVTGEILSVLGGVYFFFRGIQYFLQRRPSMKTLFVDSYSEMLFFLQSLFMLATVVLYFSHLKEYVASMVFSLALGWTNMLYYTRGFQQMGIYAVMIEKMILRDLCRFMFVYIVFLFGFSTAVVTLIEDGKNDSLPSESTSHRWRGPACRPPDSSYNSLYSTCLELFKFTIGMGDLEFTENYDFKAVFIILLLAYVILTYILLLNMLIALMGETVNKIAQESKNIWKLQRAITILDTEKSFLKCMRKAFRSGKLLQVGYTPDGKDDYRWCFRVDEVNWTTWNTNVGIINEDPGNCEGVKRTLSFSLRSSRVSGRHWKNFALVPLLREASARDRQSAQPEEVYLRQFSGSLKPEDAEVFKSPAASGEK
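Fluo-8 calcium influx in TRPV1-expressing cells, kinetic read (ex 480/em 520 nm). Compound added and read 3 min for agonist activity, followed by capsaicin at EC20 final and 2 min further read for enhancement.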
Menin MLL FP FL = qHTS Assay for Inhibitors Targeting the Menin-MLL Interaction in MLL Related Leukemias: Competition With Fluorescein Labeled MLL-derived Peptide; 290,000 tested, under 10 active; Fluorescence polarization, fluorescein-MLL peptide displacement from menin; FP activity change, % at 61.4 µM; inconclusive = falling polarisation curve, or a change in total fluorescence; inactive = total fluorescence flat and polarisation flat or rising; no compound was filed as active; the % refers to the polarisation; negative = inhibition;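 also: % of control where 0% means no effect; inhibitors lower the polarisation; unlabelled MLL peptide was the positive control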
gsp antagonist = qHTS for Antagonists of gsp, the Etiologic Mutation Responsible for Fibrous Dysplasia/McCune-Albright Syndrome: qHTS; gsp-mutant cells, cAMP HTRF, 30 min; control for the full effect not named in the record; Potency, µM (top dose mostly 76.9 µM), for inactives: top-dose activity change, negative = inhibition, most hits filed as inhibitors; actives 0.4% (n = 340,000); active = falling curve of any shape with a large fitted effect; inconclusive = falling curve, mostly with a smaller effect; inactive = flat or rising curve; cell line not stated here;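 also: intracellular cAMP measured with PDE inhibitor Ro 20-1724 present during compound exposure; potency is read from the fitted curve at half-maximal effect; % is scaled to controls: 0 for no effect and ±100 for the full control effect; nearly all actives have a fitted effect of over 65% in size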
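Cells, 2000/well, grown 16–24 h in DMEM 10% FBS with 0.5 mg/ml G418, then compounds plus […] (300 uM addition stock), 30 min at 37C. cAMP read by HTRF (cAMP-d2 and anti-cAMP antibody-K in lysis buffer) after 30 min RT.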
CtBP-E1A blk = qHTS Assay for Inhibitors of the CtBP/E1A Interaction; CtBP / adenovirus E1A interaction (AlphaScreen); AlphaScreen GST-E1A/His-CtBP binding, 1536-well; stronger effect = lower value; control for the full effect not named in the record; activity change, % (test concentration not listed); actives 0.49% (n = 340,000); AID 651724, 2012; in the data active means activity change below about -65%; inconclusive means about -30% to -65%; inactive means above about -30%; also: % is scaled to controls: 0 for no effect and ±100 for the full control effect; compound concentration not given in the record
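Steps: dispense buffer (Tris pH 8.0, NaCl 300 mM, TCEP 1 mM, BSA, Tween 20); add 5X protein mix (GST-E1A, His-CtBP, 125 nM each); pin 23 nL compound; 2 h at 37 °C, dark; add 5X beads (50 ug/mL); 1 h; read.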
An asterisk follows results filed as active; ? = inconclusive; / = no result given; [ ] = dose if it differs, or a comment.

SMILES | Sfp inh | ClpP mod | gsp ag | TRPV1 PAM | Menin MLL FP FL | gsp antagonist | CtBP-E1A blk
O=C1N(c2ccccc2)c2ccccc2C1(O)C(F)(F)F (stereo not drawn) | 17% | -1.2% | -4%[15.4 µM] | 6 | 3.7 | 4% | -18
COCCN(C(=O)CC1CCCCC1)c1c(N)n(CC(C)C)c(=O)[nH]c1=O | / | -2.9% | -7% | 3 | / | 2% | 0
COc1ccc(C(=O)/C(C#N)=N/Nc2ccccc2[N+](=O)[O-])cc1 | 8% | 3.2% | -32%[inhibitor] | 4 | 2.6 | -7% | -19
O=C(c1n[nH]c(=O)c2ccccc12)N1CCOCC1 | 8% | 1.2% | 17% | 2 | 8.0 | 3% | -1
O=C(NCc1ccccn1)c1cc(Cl)ccc1OCc1ccccc1 | -10% | -1.9% | ? | -7 | -3.6 | -21% | 8
O=C(Nc1cccnc1)C1(c2ccc(Cl)cc2)CCCC1 | 14% | -1.4% | -43%[inhibitor] | 11 | 3.8 | -5% | 4
CCCOc1ccc2c(=O)c(-c3cc(C(=O)OC)oc3C)c(C)oc2c1 | -9% | -0.2% | 8% | -7 | 1.6 | ? | -10
C[C@@H]1O[C@@H](O[C@H]2[C@H](O)[C@@H](O)[C@H](Oc3c(-c4ccc(O)c(O)c4)oc4cc(O)cc(O)c4c3=O)O[C@@H]2CO)[C@H](O)[C@H](O)[C@H]1O | / | -1.1% | / | ? | / | 1% | -8
COc1ccc(Cl)c(CNC[C@H]2O[C@@H](n3cnc(C(N)=O)n3)[C@H](O)[C@@H]2O)c1 | / | -0.4% | / | / | / | 10% | 1
COc1ccc(S(=O)(=O)NCc2ccccn2)cc1 | 5% | 0.4% | / | 12 | 0.2 | 11% | 6
CN(C)CCCN(C(=O)c1cc2ccccc2oc1=O)c1nc2ccc(F)cc2s1 | -5% | -2.6% | 17% | 0 | -1.3 | 14% | -3
NC(=O)CSc1nnc(-c2ccc(S(=O)(=O)N3CCCC3)cc2)n1CC1CCCO1 (stereo not drawn) | 17% | -7.3% | 15% | 5 | -0.9 | 4% | 4
CCN(CC)C(=O)Cn1nc(-c2ccccc2O)nc1SCC(=O)Nc1ccc(OC)cc1 | 15% | 0.7% | -6% | 4 | 3.4 | -11% | 1
O=[N+]([O-])c1ccc(/C=N/n2cnc3ccccc32)s1 | 29% | 1.0% | 51% | -18 | / | -24% | -3
CN1CCN(C2Cc3cc(Cl)ccc3Sc3cc(F)ccc32)CC1 (stereo not drawn) | / | -0.2% | 9%[15.4 µM] | / | / | 4% | 4
Cc1cccc(Nc2ccc([N+](=O)[O-])cn2)c1 | 8% | 0.7% | -3% | ? | 0.3 | 2% | /
Cc1ccc2c(c1)N(CC(=O)NCC1CCCO1)C(=O)CO2 (stereo not drawn) | 21% | / | 9% | -1 | -0.5 | 2% | 4
CCC(=O)Nc1cccc(C(=O)OCc2cccc([N+](=O)[O-])c2)c1 | 7% | -2.2% | 23% | 16 | -6.6 | -8% | -12
O=C(CSc1cccc2cccnc12)N/N=C/c1cccnc1 | ? | / | -21% | 3 | -0.6 | 3% | -94*
Cc1cc2c(=O)n(C)c(SCC(=O)NC3CCCC3)nc2s1 | / | -0.8% | 8% | 1 | / | -15% | 10

Shown as a hit in CtBP-E1A blk, among the entries above:
Structure	Sfp inh	gsp ag	Menin MLL FP FL	gsp antagonist	CtBP-E1A blk
O=C(CSc1cccc2cccnc12)N/N=C/c1cccnc1	?	-21%	-0.6	3%	-94*

Following part
SMILES | Sfp inh | ClpP mod | gsp ag | TRPV1 PAM | Menin MLL FP FL | gsp antagonist | CtBP-E1A blk
Cc1ccc(CSc2ccc(S(=O)(=O)N3CCCC3)cn2)cc1 | / | -0.2% | 5% | 0 | / | -1% | /
O=C(Nc1ccc(Cl)c([N+](=O)[O-])c1)c1ccc(NCCCN2CCOCC2)c([N+](=O)[O-])c1 | -1% | -1.4% | -10% | -14 | 12 | 11% | 6
CCOc1ccc(Nc2oc(-c3cccc(Cl)c3)nc2C#N)cc1 | 25% | -1.1% | -28% | -8 | -1.8 | 8% | 6
Cc1c(/C(O)=C2\C(=O)C(=O)N(CCCN(C)C)C2c2ccco2)cnn1-c1ccccc1 (stereo not drawn) | / | / | 23% | / | / | 3% | 10
Cc1[nH]n(-c2ccccc2)c(=O)c1C=Nc1ccc(S(=O)(=O)N=C(N)N)cc1 | 19% | -0.9% | -7% | 6 | -0.8 | 5% | /
Cc1cc(C)nc(NNS(=O)(=O)c2ccc(Cl)cc2)n1 | / | 0.9% | -4% | / | / | 9% | 0
Cc1ccc(C)c(NC(=O)CCN2CCN(C)CC2)c1 | -2% | -0.7% | 10%[15.4 µM] | 5 | -2.6 | -1% | 0
Cc1cccc(NC(=O)c2ccccc2O)c1C | 13% | -5.4% | -5% | -17 | 0.5 | -19% | 9
O=c1[nH]cnc2c1ccn2C1OC(CO)C(O)C1O (stereo not drawn) | / | 1.5% | / | / | / | 9% | 10
CN(C)S(=O)(=O)c1cccc(NC(=O)COC(=O)CNC(=O)c2cccc([N+](=O)[O-])c2)c1 | ? | -1.3% | -2% | 3 | -0.6 | -17% | 4
CN(CC(=O)Nc1ccccc1N1CCOCC1)CC(=O)Nc1ccc(F)c(F)c1F | -16% | / | -16% | 15 | 0.2 | -2% | 2
Nc1ccc2nc(C(F)(F)F)[nH]c2c1 | 3% | -4.3% | -35%[inhibitor] | 2 | -1.2 | 9% | 1
COc1ccc([C@@H]2Sc3ccccc3NC(=O)[C@@H]2O)cc1 | / | -1.9% | -5% | / | / | -6% | /
CC1CCCN(Cc2ccc(OCc3ccccc3)cc2)C1 (stereo not drawn) | 10% | 1.4% | -3%[15.4 µM] | 6 | -6.4 | 8% | -10
Cc1cccn2c(=O)c3cc(C(=O)NC4CCCCC4)c(=N)n(Cc4ccccc4)c3nc12 | 28µM* | 2.9% | 15% | 21 | / | -14% | 2
O=C(CSc1nc2c(cnn2-c2ccccc2)c(=O)[nH]1)N1N=C(c2cccs2)CC1c1ccc(F)cc1 (stereo not drawn) | 5% | ? | -30%[inhibitor] | 8 | 2.3 | 3% | 5
Nc1ccc(Sc2cnn(-c3ccccc3)c(=O)c2Cl)cc1 | 8% | 20µM* | -40%[inhibitor] | -36 | -1.0 | -9% | 0
O=c1oc(-c2ccc(Cl)cc2[N+](=O)[O-])nc2ccccc12 | / | -0.1% | 8% | / | / | / | -19
CCOC(=O)c1c(/N=C/N(C)C)sc(C=O)c1-c1ccccc1 | 12% | / | -2%[15.4 µM] | -5 | -0.3 | -1% | -5
CCn1c(=O)c(CCC(=O)NCC2CCCO2)c(C)c2c(C)nn(-c3ccccc3)c21 (stereo not drawn) | -1% | 4.0% | ? | -17 | / | -42% | -18
Cc1[nH]c(=O)[nH]c(=O)c1S(=O)(=O)N1CCCC1 | 4% | -0.5% | 23% | 1 | -0.7 | 5% | 2
Cc1ccc(CCNC(=O)C2CCN(S(=O)(=O)c3cccc4nsnc34)CC2)cc1 | 7% | 0.0% | -9% | 7 | 4.0 | 0% | 3
COc1ccc(-c2nnc(-c3cccnc3)o2)cc1 | 5% | ? | -4% | -41 | -0.6 | -7% | 1
Cc1ccc(Nc2nc(N3CCOCC3)nc(N3CCOCC3)n2)cc1C | 6% | -1.2% | 8% | 2 | -1.3 | 4% | /
CCCCN(C(=O)NC(=O)Nc1nc2ccc(OC)cc2s1)S(C)(=O)=O | 56µM* | -7.5% | ? | -16 | 0.8 | 7% | ?
COCCN(C(=S)Nc1cc(C)cc(C)c1)C(C)c1cccnc1 (stereo not drawn) | -2% | -0.9% | 2% | -1 | 0.5 | -3% | -5
COCCc1ncc(CN2CCCC(C(=O)Nc3cccc(-c4cccc(C)c4)c3)C2)cn1 (stereo not drawn) | -7% | -2.0% | 10% | 27 | / | -5% | -17
O=C(O)CCn1c(-c2ccccc2)cc2ccccc21 | 25% | / | 25%[15.4 µM] | 13 | 2.5 | -88% | -10
O=C1NN(c2ccc(F)cc2)C(=O)/C1=C/c1cccs1 | 10% | -0.5% | 7%[15.4 µM] | -8 | -3.0 | -20% | -5
CCCCCCCOc1ccc(-c2ccc(C#N)cn2)cc1 | 7% | -2.5% | -14%[15.4 µM] | 0 | 3.1 | 18% | 0
O=C1CC(Nc2ccccc2)C(=O)N1c1ccc(N2CCOCC2)cc1 (stereo not drawn) | -5% | -3.0% | -16% | 10 | 2.1 | 8% | -1
CN(CCc1ccccn1)S(=O)(=O)c1ccc(F)cc1 | -26% | -26% | 6% | 2 | -0.9 | 0% | 1
COC(=O)c1cc2ccccc2c(-c2c(O)ccc3ccccc23)c1O | -5% | 1.8% | 15% | -6 | 7.8 | -21% | -1
Brc1ccc(Oc2ncc(CN3CCOCC3)s2)cc1 | -1% | 2.0% | 10% | -4 | -1.2 | 10% | 3
Nc1nc2nc(SCC(=O)N3CCCc4ccccc43)[nH]c2c(=O)[nH]1 | -9% | / | / | -16 | 3.0 | / | /
FC(F)(F)c1ccnc(Sc2n[nH]c(C(F)(F)F)n2)c1 | -3% | / | 15%[15.4 µM] | -10 | 3.7 | -11% | -14
Nc1cccc(P(=O)(c2ccccc2)c2ccccc2)c1 | 12% | / | -7% | 3 | 0.4 | 6% | 3
Cc1nn(-c2ccccc2)c(N)c1C(O)(CC(=O)C(F)(F)F)C(F)(F)F (stereo not drawn) | 5% | -13% | -25% | -9 | 4.5 | 9% | 3
CN1C(=O)CSc2ccc(NC(=O)Nc3ccccn3)cc21 | 6% | 0.9% | -21% | -8 | 4.2 | -2% | -3
